# KOR beta-arrestin-1 – kappa opioid receptor activators – cell-based, luminescence, uHTS, primary screen (AID 1777); KOR beta-arrestin recruitment, luminescence; higher % means a stronger effect; activation, % at 10 µM, or EC50 in µM where a hit was titrated; 0.02% of 280,000 active; in the data active means activation above about 50%, passing the limit was not always enough; further: a part of the inactive calls stands beside numbers as strong as those of hits
# HIV fusion peptide – inhibitors of HIV fusion peptide binding, primary screen, biochemical, uHTS, fluorescence dequenching (AID 1986); cell-free peptide binding, fluorescence dequenching, 30 min; higher % means a stronger effect; inhibition, % at 20 µM; hits with a dose series show IC50 in µM; 0.3% of 290,000 active; in the data active means inhibition mostly above about 52%, no sharp cut-off; inactive means mostly below about 76%; further: some results filed as inactive read as strong as hits
# GPR55 beta-arrestin – GPR55 agonists via beta-arrestin recruitment, primary screen, imaging, U2OS cells, beta-arrestin-GFP redistribution (AID 1961); U2OS GPR55 beta-arrestin-GFP redistribution imaging; higher % means a stronger effect; 0.048% of 290,000 active; activation, % at 10 µM; hits with a dose series show EC50 in µM;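 active means activation above 40% with more than 50 cells counted in the well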;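 further: U2OS osteosarcoma cells stably expressing GPR55 and beta-arrestin-GFP; plate controls were DMSO negative control for no effect and LPI positive control for full effect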
# AID2073 – disruptors of CaV2.2 binding to Mint1 – biochemical, HTRF (AID 2073). one-dose inhibition, % at 20 µM; IC50 in µM for titrated hits. HTRF protein-protein interaction, Mint1-CaV2.2; higher % means a stronger effect. 0.19% of 290,000 active; in the data active means inhibition mostly above about 51%, no sharp cut-off; further: some results filed as inactive read as strong as hits
# KOR beta-arrestin-2 – kappa opioid receptor blockers – cell-based, luminescence, uHTS (AID 1778) | KOR beta-arrestin recruitment, luminescence, antagonist mode; higher % means a stronger effect | one-dose inhibition, % at 10 µM; IC50 in µM for titrated hits | 0.091% of 290,000 active; in the data active means inhibition above about 50%; further: strong numbers were not always called active
# GPR35 antagonists – inhibition of zaprinast-stimulated GPR35 beta-arrestin translocation – imaging, U2OS, beta-arrestin-GFP, zaprinast agonist, primary screen (AID 2058) | U2OS GPR35 beta-arrestin-GFP translocation imaging, zaprinast antagonism; higher % means a stronger effect | inhibition, % at 10 µM; hits with a dose series show IC50 in µM | 0.052% of 290,000 active;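 active means inhibition of at least 50% with at least 30 cells and total cytoplasm GFP at most 10,000,000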
# GPR55 LPI antagonism – inhibition of LPI-stimulated GPR55 beta-arrestin translocation – imaging, U2OS, beta-arrestin-GFP, LPI agonist, primary screen (AID 2013) | U2OS GPR55 beta-arrestin-GFP translocation imaging, LPI antagonism; higher % means a stronger effect | inhibition, % at 10 µM, or IC50 in µM where a hit was titrated | 0.13% of 290,000 active;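 active means spots per cell inhibited over 60%, with over 100 cells counted and total cytoplasm intensity under 500,000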;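 further: U2OS cells stably carrying GPR55 and arrestin-GFP stimulated by 5 µM LPI near EC80; imaged beta-arrestin-GFP aggregate spots per cell after agonist stimulation; plate controls were LPI-stimulated DMSO wells for no effect and DMSO wells without LPI for full effect; some results filed as inactive read as strong as hits; confirmed hits need IC50 under 10 µM and bright autofluorescent wells are also inconclusive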
# Siah-1 displacement – Siah-1 peptide-binding antagonists, primary screen, biochemical, fluorescence polarization, rhodamine-plectin, uHTS (AID 1817). Siah-1 / rhodamine-plectin peptide fluorescence polarization; higher % means a stronger effect. one-dose displacement, % at 20 µM; IC50 in µM for titrated hits. 0.02% of 290,000 active;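 active means displacement of at least 50% at 20 µM, with a fluorescence ratio check between 0.3 and a set limit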;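 further: plate controls were Siah plus tracer with DMSO for no effect and tracer alone without Siah for full effect; strong numbers were not always called active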
# Starred values were filed as active, the others as inactive; / = no result given; [ ] = dose if it differs, or a comment. Only part of the results is shown, so the mix of outcomes need not match the whole.
SMILES,KOR beta-arrestin-1,HIV fusion peptide,GPR55 beta-arrestin,AID2073,KOR beta-arrestin-2,GPR35 antagonists,GPR55 LPI antagonism,Siah-1 displacement
O=[N+]([O-])c1ccc(O)c(/C=N/Nc2ccc(Cl)nn2)c1,3.4%,-0.9%,0.0%,4%,-63%,8%,-2%,-9%
Nc1c(C(=O)NCc2ccco2)nnn1-c1ccccc1,0.7%,5.5%,0.0%,31%,-4%,0%,14%,-1%
CCOc1cc(/C=C(/C#N)c2ccc(Cl)cc2)cc(Cl)c1OCC(=O)O,-5.6%,34%,0.2%,19%,-15%,-10%,5%,3%
COc1ccc(C(=O)/C(C#N)=N/Nc2cccc([N+](=O)[O-])c2)cc1,-3.7%,21%,-0.1%,5%,-246%[20 µM],-18%,-39%,1%
Cc1ccc(S(=O)(=O)Nc2cccc3ncccc23)s1,3.3%,0.9%,0.4%,6%,107%*,-1%,26%,-7%
Cc1ccc(C(=O)N(CN2CCCC2=O)c2ccccc2)cc1C,2.5%,0.4%,-0.1%,14%,-21%,6%,2%,-3%
COc1ccc2cc3c(N)nn(C(=O)Cc4ccccc4OC)c3nc2c1,-2.1%,0.1%,-0.1%,2%,-2%,8%,-3%,0%
O=[N+]([O-])c1ccc(O)c(/C=N/NC(=S)Nc2ccc(Cl)cc2Cl)c1,-1.1%,40%,-0.1%,-2%,37%,2%,-3%,-12%
COc1ccc(Cc2nc3ccc(C(=O)N4CCN(C)C(C)C4)cc3o2)cc1OC (stereo not drawn),2.7%,3.9%,-0.1%,-6%,-25%,-20%,2%,5%
COc1ccc(-c2cnc(N)nc2-c2ccc(OC)cc2O)cc1,1.5%,-3.3%,-0.2%,-1%,13%,-5%,14%,-1%
CN(C)S(=O)(=O)N1CCC(Oc2cccc(C(=O)NC3CCCCCC3)c2)CC1,0.1%,0.6%,0.0%,1%,5%,1%,9%,10%
N#C/C(=C(/O)Cc1cccc2ccccc12)c1nc2ccccc2s1,4.0%,0.6%,0.2%,11%,-19%,-6%,3%,2%
Nc1ccccc1Nc1ccccc1,2.3%,-0.1%,-0.1%,-14%,-10%,17%,29%,4%
O=C(c1ccccc1)c1nn(-c2ccc(Cl)cc2)c(=O)cc1C(F)(F)F,3.1%,-2.3%,-0.1%,9%,-21%,8%,14%,2%
Cc1ccc(-c2csc(=Nc3cccnc3)n2CCCn2ccnc2)cc1C,6.3%,1.7%,-0.4%,-10%,-13%,-9%,16%,5%
N#Cc1ccc(C(=O)Nc2nc(-c3cccs3)c(C(=O)C(F)(F)F)s2)cc1,-0.4%,4.5%,-0.3%,29%,-10%,-12%,1%,-5%
O=C(Nc1nnc(-c2ccc3c(c2)CCCC3)o1)c1ccccc1Cl,-3.7%,-0.3%,0.3%,-3%,44%,4%,-2%,-2%
O=[N+]([O-])c1ccc(N2CCCC2)cc1NCc1ccccc1,4.0%,-2.5%,0.2%,-10%,-49%,6%,-4%,-2%
Cn1c(=O)[nH]c(=O)c2c1nc(N1CCC(Cc3ccccc3)CC1)n2Cc1ccccc1,20%,-1.1%,-0.1%,-4%,-5%,14%,17%,-7%
Cc1ccc2nc(-c3ccc4c(c3)OCCO4)cn2c1,-0.1%,-1.8%,0.0%,18%,-16%,-7%,-2%,5%
CCC(Sc1nc2sc(C(=O)OC)c(C)c2c(=O)n1N)C(=O)N(CC)CC (stereo not drawn),5.3%,0.8%,-0.2%,-6%,-44%,-12%,-1%,-1%
CN(CC1CCCO1)S(=O)(=O)c1ccc(C(=O)Nc2nc3cc4c(cc3s2)OCO4)cc1 (stereo not drawn),-3.7%,4.2%,-0.1%,53%,-22%[20 µM],-14%,-15%,-6%
CC(C)C(=O)N1CCN(c2ccc(NC(=O)c3ccc4c(c3)OCCO4)cc2Cl)CC1,12%,1.5%,-0.1%,2%,-79%,5%,20%,-1%
O=C(Sc1cccc2cccnc12)c1ccccc1Br,-6.4%,-1.5%,-0.2%,-26%,10µM*,0%,5%,-5%
CCCCCCCCCn1c2c(c(=N)c3c1CCC3)CCC2,1.8%,-1.5%,3.4%,-2%,-11%,-11%,13%,-1%
CCN1C/C(=C/c2cccc([N+](=O)[O-])c2)C(=O)/C(=C/c2cccc([N+](=O)[O-])c2)C1,7.2%,1.1%,0.1%,-1%,14%,-4%,10%,3%
CC(C)C(=O)NC(c1cccs1)c1cc([N+](=O)[O-])c2cccnc2c1O (stereo not drawn),-7.5%,23%,-0.1%,46%,57%,-1%,0%,1%
CSc1ccccc1NC(=O)c1cc(CC(C)C)on1,-3.9%,-2.8%,-0.3%,-8%,-38%,6%,2%,-5%
Cc1c(C(=O)Nc2nc3ccccc3[nH]2)oc2ccc(Br)cc12,-5.9%,3.3%,0.3%,23%,5%,4%,10%,-3%
O=C(NNC(=O)c1ccccc1OCc1ccccc1)c1ccccc1O,-0.8%,5.2%,-0.2%,7%,-11%,3%,4%,2%
COc1ccc(Cc2nc(-c3ccc(-n4cccc4)cc3)no2)cc1OC,-3.4%,-2.5%,-0.3%,5%,-40%,8%,5%,-5%
O=C(Nc1cccc(OC(=O)c2ccco2)c1)c1ccco1,0.1%,2.1%,0.6%,-11%,-6%,1%,16%,0%
CCCN(CCC)S(=O)(=O)c1ccc(C(=O)Nc2nnc(-c3cc(OC)cc(OC)c3)o2)cc1,7.4%,1.8%,0.2%,5%,-92%,8%,15%,-3%
Cc1onc(-c2c(F)cccc2Cl)c1C(=O)Nc1nnc(C(F)(F)F)s1,3.8%,8.2%,0.0%,38%,-4%,-3%,14%,2%
CNC(=O)c1nnsc1S(=O)(=O)c1ccc(Cl)cc1,-2.8%,-2.7%,1.1%,30%,-24%,-2%,/,-14%
C=CCn1c(Oc2ccc(C(=O)OC)cc2)nc2c1c(=O)n(C)c(=O)n2C,3.0%,-1.2%,-0.3%,15%,1%,-8%,10%,0%
O=C(OCn1ncc(Br)c(Br)c1=O)c1ccc(F)cc1,-4.7%,26%,1.6%,-2%,19µM*,16%,5µM*,-2%
COc1cccc(Nc2nc(NCCO)c3ccccc3n2)c1,11%,-1.5%,0.3%,6%,-45%,2%,2%,-3%
O=C(NC(c1ccc(Cl)cc1)c1c(O)ccc2ccccc12)c1ccccc1 (stereo not drawn),2.3%,1.9%,0.5%,19%,5%,-10%,10%,0%
O=C(Nc1ccc(S(=O)(=O)N2CCOCC2)cc1)c1ccc(CN2CCc3ccccc3C2)cc1,-2.5%,-0.3%,-0.1%,5%,0%,-7%,0%,-2%

# Records above shown as hits in GPR55 LPI antagonism.
SMILES,KOR beta-arrestin-1,HIV fusion peptide,GPR55 beta-arrestin,AID2073,KOR beta-arrestin-2,GPR35 antagonists,GPR55 LPI antagonism,Siah-1 displacement
O=C(OCn1ncc(Br)c(Br)c1=O)c1ccc(F)cc1,-4.7%,26%,1.6%,-2%,19µM*,16%,5µM*,-2%

# Carrying on:
SMILES,KOR beta-arrestin-1,HIV fusion peptide,GPR55 beta-arrestin,AID2073,KOR beta-arrestin-2,GPR35 antagonists,GPR55 LPI antagonism,Siah-1 displacement
COc1ccc(-c2cc(C(F)(F)F)nc(S(=O)(=O)CCCC(=O)Nc3cccnc3Cl)n2)cc1OC,-1.4%,-1.2%,11%,9%,-21%,4%,17%,1%
Cc1ccc(SCc2cc(=O)[nH]c(/N=C(\N)Nc3ccc(C)c(C)c3)n2)cc1,-0.9%,-0.3%,0.8%,0%,0%,11%,1%,-2%
Cc1ccccc1NC1=C/C(=N\S(=O)(=O)c2cccs2)c2ccccc2C1=O,-3.6%,-2.6%,0.3%,-28%,-88%,-12%,-11%,2%
COc1ccc2[nH]c(=O)c3c(c2c1)OC(C)(C)C=C3,-1.2%,1.4%,-0.1%,32%,2%,-6%,-24%,-6%
N#CC(c1cccc(Cl)c1)c1ccc2c(C(F)(F)F)cc(C(F)(F)F)nc2n1 (stereo not drawn),11%,-4.8%,-0.2%,-1%,-1%,-12%,15%,-2%
Cc1ccc(NC(=O)c2cnc(N3CCN(c4ccccn4)CC3)c3ccccc23)c(Br)c1,4.1%,-0.7%,-0.5%,46%,6%,-4%,3%,4%
C/C(=N\NC(=O)c1nnn(-c2nonc2N)c1CN1CCc2ccccc21)c1ccccc1O,4.8%,1.8%,-0.2%,36%,-62%,-5%,-37%,0%
C/C(=N\Nc1nc2ccccc2[nH]1)c1ccccn1,-0.3%,1.5%,0.4%,2%,91%*,-9%,11%,-7%
COc1cccc2sc(Nc3nc(-c4ccccn4)cs3)nc12,3.3%,21%,-0.1%,0%,1.6µM*,-21%,15%,-11%
COc1cccc(C(=O)Nc2ccc3nc(N4CCN(c5ncccn5)CC4)cc(C)c3c2)c1OC,1.4%,-3.1%,-0.5%,30%,-23%,2%,0%,10%
CCOc1ccc(S(=O)(=O)Nc2cc(SCC(=O)O)c(O)c3ccccc23)cc1,-5.7%,21%,-0.1%,27%,4%[20 µM],-3%,-3%,5%
O=[N+]([O-])c1ccc(O)c(-c2cc(C(F)(F)F)nc(-c3ccccc3)n2)c1,1.7%,3.9%,-0.1%,11%,-103%,-17%,-10%,-3%
CCN(Cc1ccccc1)S(=O)(=O)c1ccc(C(=O)Nc2nnc(C3CC3)o2)cc1,1.5%,-2.2%,-0.2%,-1%,-40%,1%,-3%,-13%
CC(C)(C)c1ccc(-c2c(C#N)c(N)nc3c2CCCC3)s1,0.3%,-0.6%,0.0%,7%,18%,3%,13%,6%
O=C(N/N=C/c1c(O)ccc2ccccc12)c1ccc(CO)nc1,0.0%,12%,39%,18%,-25%,-4%,5%,4%

# Eleven structures out of the list, sorted by length of the SMILES, smallest number first:
SMILES,KOR beta-arrestin-1,HIV fusion peptide,GPR55 beta-arrestin,AID2073,KOR beta-arrestin-2,GPR35 antagonists,GPR55 LPI antagonism,Siah-1 displacement
C/C(=N\Nc1nc2ccccc2[nH]1)c1ccccn1,-0.3%,1.5%,0.4%,2%,91%*,-9%,11%,-7%
COc1cccc2sc(Nc3nc(-c4ccccn4)cs3)nc12,3.3%,21%,-0.1%,0%,1.6µM*,-21%,15%,-11%
COc1ccc2[nH]c(=O)c3c(c2c1)OC(C)(C)C=C3,-1.2%,1.4%,-0.1%,32%,2%,-6%,-24%,-6%
CC(C)(C)c1ccc(-c2c(C#N)c(N)nc3c2CCCC3)s1,0.3%,-0.6%,0.0%,7%,18%,3%,13%,6%
Cc1ccccc1NC1=C/C(=N\S(=O)(=O)c2cccs2)c2ccccc2C1=O,-3.6%,-2.6%,0.3%,-28%,-88%,-12%,-11%,2%
CCOc1ccc(S(=O)(=O)Nc2cc(SCC(=O)O)c(O)c3ccccc23)cc1,-5.7%,21%,-0.1%,27%,4%[20 µM],-3%,-3%,5%
N#CC(c1cccc(Cl)c1)c1ccc2c(C(F)(F)F)cc(C(F)(F)F)nc2n1 (stereo not drawn),11%,-4.8%,-0.2%,-1%,-1%,-12%,15%,-2%
Cc1ccc(SCc2cc(=O)[nH]c(/N=C(\N)Nc3ccc(C)c(C)c3)n2)cc1,-0.9%,-0.3%,0.8%,0%,0%,11%,1%,-2%
Cc1ccc(NC(=O)c2cnc(N3CCN(c4ccccn4)CC3)c3ccccc23)c(Br)c1,4.1%,-0.7%,-0.5%,46%,6%,-4%,3%,4%
COc1cccc(C(=O)Nc2ccc3nc(N4CCN(c5ncccn5)CC4)cc(C)c3c2)c1OC,1.4%,-3.1%,-0.5%,30%,-23%,2%,0%,10%
COc1ccc(-c2cc(C(F)(F)F)nc(S(=O)(=O)CCCC(=O)Nc3cccnc3Cl)n2)cc1OC,-1.4%,-1.2%,11%,9%,-21%,4%,17%,1%

# Screening results (PubChem BioAssay)
